CDC25B CDK2 inh: human CDC25B-CDK2/CyclinA binding inhibition; HTRF CDC25B-CDK2/CyclinA binding, anti-His/anti-Flag; active compounds read high; P30305+P24941; 94,000 tested, 0.72% active; z-score (no concentration beside the values);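 further: score is relative to mean and SD of negative controls; strong numbers were not always called active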
TAR Tat displ: HIV-1 TAR-Tat binding disruption; HIV-1 TAR RNA, Tat peptide displacement FRET; active compounds read high; z-score (no concentration beside the values); 100,000 tested, 0.6% active;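 further: score is relative to mean and SD of negative controls; some compounds called inactive have numbers as strong as hits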
The depositor's hits bear a star; · = no result given.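 How the source made its calls: active means z-score from 3 up in half or more of its runs; inactive means the rest.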 An unsorted share of the library (roughly 0.97% active in at least one column).

SMILES | TAR Tat displ | CDC25B CDK2 inh
Cn1c(CSc2nc3ncnc(N)c3[nH]2)nc2ccccc21 | 0.28 | -1.3
O=C(C1CCN(c2ncnc3c2nc2n3CCCCC2)CC1)N1CCOCC1 | 0.75 | ·
c1ccc(-c2nc3ccccn3c2Nc2ccc3c(c2)OCCO3)nc1 | 0.03 | -0.63
CCOC(=O)C1=C(C)NC(C)=C(C(=O)OCC)C1c1ccc(-c2ccccc2C(F)(F)F)o1 | · | -0.73
Cc1cccc(NS(=O)(=O)c2ccc(-c3cnc(C4CC4)o3)cc2)c1 | 1.7 | ·
C=CCNc1nc(NCc2ccc(Cl)cc2)c2cnn(C)c2n1 | 1.8 | ·
CCCN1C(=O)C(O)(CC(=O)c2cc(OC)ccc2OC)c2cc(Br)ccc21 (stereo not drawn) | 1.3 | 0.38
Clc1ccc(-c2csc(-c3cnccn3)n2)s1 | · | -2
CCOc1ccc(-c2nn3c(Cc4ccccc4)nnc3s2)cc1 | 2.4 | -1.7
NC(=O)CSc1nc2c(c(C(F)(F)F)n1)CCc1ccccc1-2 | -1.4 | 0.05
O=C1CN2C(=Nc3ccc(Br)cc3C2c2ccccc2)CN1 (stereo not drawn) | · | -0.61
Cc1nc2ncnn2c(Nc2ccc3c(c2)OCCO3)c1C | 1.6 | ·
CS(=O)(=O)c1nc(S(=O)(=O)c2ccc(Cl)cc2)c(NCc2cccnc2)s1 | 0.26 | -1.7
CN(C)/C=C(\C#N)C(=O)c1cccc(C(F)(F)F)c1 | · | -1.2
N#C/C(=C\c1c(Cl)cccc1Cl)C(=O)Nc1ccc(F)c(Cl)c1 | · | -1.2
CCCS(=O)(=O)c1c(S(=O)(=O)CCC)c2c(N)cccn2c1C(=O)c1ccc(C)cc1C | -13 | -0.88
Cc1ccc(OCc2nn3c(-c4ccc(F)cc4)nnc3s2)cc1 | 2.4 | -2.5
Fc1cccc(Nc2nc(-c3ccccc3)no2)c1 | 0.85 | ·
O=C(CCc1nnc2ccc(N3CCCC3)nn12)NCc1cccnc1 | -0.38 | ·
CCn1c(C(=O)N2CCC(C(=O)N3CCc4ccccc4C3)CC2)cc2sccc21 | 1 | -1.1

The final 3 records of the section before come first, to join the parts:
SMILES | TAR Tat displ | CDC25B CDK2 inh
Fc1cccc(Nc2nc(-c3ccccc3)no2)c1 | 0.85 | ·
O=C(CCc1nnc2ccc(N3CCCC3)nn12)NCc1cccnc1 | -0.38 | ·
CCn1c(C(=O)N2CCC(C(=O)N3CCc4ccccc4C3)CC2)cc2sccc21 | 1 | -1.1
COc1ccc(Cl)cc1NC(=O)c1ncoc1-c1ccco1 | 0.96 | ·
Cc1ccc(OCC(O)CN2CCN(Cc3ccc4c(c3)OCO4)CC2)cc1C (stereo not drawn) | · | -1
O=C(CCc1nc(CN2CCN(S(=O)(=O)c3ccc(Cl)cc3)CC2)no1)N1CCOCC1 | -2.3 | ·
O=c1c2nccnc2nc(SCc2ccccc2F)n1Cc1cccs1 | 1.2 | ·
O=C(NCc1cccnc1)c1nn2c(c1Br)NC(c1cccs1)CC2C(F)(F)F (stereo not drawn) | -0.89 | -2.6
O=S(=O)(Nc1ccccc1Cl)c1ccc(F)cc1 | 1.2 | -0.44
CSC1=NCCN1S(=O)(=O)c1cccc2nsnc12 | 0.35 | -0.4
CCCn1c(=O)c2oc(C)cc2n(-c2ccccc2C)c1=O | · | -1.4
COc1cc(C2c3c(oc4ccc(F)cc4c3=O)C(=O)N2Cc2ccc(F)cc2)ccc1O (stereo not drawn) | 0.11 | -0.85
CC1=C(C(=O)N2CCN(c3ccc(F)cc3)CC2)C2(CCN(S(C)(=O)=O)CC2)OC1=O | 0.08 | ·
COc1cccc(C2CC(=O)C3=C(C2)Nc2ccccc2NC3c2ccc3c(c2)OCO3)c1 (stereo not drawn) | · | -1
Cc1cc(C)n(CC(=O)Nc2ccc3c(c2)OCO3)c(=O)c1C#N | -0.26 | ·
CC1(C(=O)NC2CCCCC2)Cn2c(cc3occc32)C(=O)N1C1CCCCC1 (stereo not drawn) | 2.2 | ·
Cc1ccc2nc3sc(C(=O)Nc4ncccc4C)cc3cc2c1 | -1.4 | ·
Oc1ccccc1C1=NC(c2ccc(Br)cc2)NC(c2cccnc2)C1 (stereo not drawn) | 1 | 1.6
O=C(CSc1nc2ccccc2o1)NC(=O)CSc1nc2ccccc2o1 | 0.85 | -0.18
O=C(Nc1ccc2c(c1)OCCO2)C1CC1 | · | -0.78
CCOC(=O)c1c(NC(C)=O)sc2c1CCC(Sc1ccccc1)C2=O (stereo not drawn) | 0.67 | -0.23
Nc1nc(SCc2c(F)cccc2Cl)n[nH]1 | · | -1.7
Cc1ccc2nc(-n3nc(C)c4c3NC(=O)CC4c3cc(Br)ccc3F)sc2c1 (stereo not drawn) | 0.73 | ·
Cc1nc2c3ccccc3n3c(CCCC(=O)NC(C)C)nnc3n2n1 | -2.4 | 0.26
CC1CC(=O)Nc2cc(S(=O)(=O)NCCN3CCCC3)ccc2S1 (stereo not drawn) | -0.03 | ·
O=C(C1CCCN(S(=O)(=O)c2ccc(Cl)cc2)C1)N1CCc2ccccc2C1 (stereo not drawn) | 1.6 | -0.82
COc1ccccc1/C=C/c1nc(C#N)c(NCCc2ccccc2)o1 | 1.5 | -0.24
Cc1c(C(=O)N(Cc2ccco2)CC2CCCO2)sc2nc3n(c(=O)c12)CCCCC3 (stereo not drawn) | 1.5 | ·
O=C(CCc1nnc2ccc(NCc3ccco3)nn12)NCC1CCN(C2CCCC2)C1 (stereo not drawn) | -0.26 | ·
CC1CCc2nc(NC(=O)COc3ccc(Br)cc3)sc2C1 (stereo not drawn) | 1.7 | -0.63
CCC1CCCCN1Cc1c(C)[nH]c2c(C)c(C)ccc2c1=O (stereo not drawn) | -0.6 | -0.9
c1ccc(-c2nc3ccc(Oc4ccc5nc(-c6ccccn6)[nH]c5c4)cc3[nH]2)nc1 | 1.1 | -1
Cc1nc2nc(NC(=O)C(C)Oc3ccccc3)[nH]n2c(=O)c1Cl (stereo not drawn) | -0.72 | -1.4
O=c1[nH]cnc(O)c1[N+](=O)[O-] | · | -1.7
CCOc1cc2c(cc1OCC)C1CC(=O)N(c3ccc(F)c(Cl)c3)C(=O)N1CC2 (stereo not drawn) | 2.2 | ·
COC(=O)c1sc2ccccc2c1S(=O)(=O)N1CCCC1 | 0.83 | ·
Cc1cccc(C2CC(=O)Nc3c2c(C)nn3-c2nncc(-c3ccccc3)n2)c1 (stereo not drawn) | 2.9 | -1.5
O=C(/C=C/c1ccc(O)c(O)c1)c1ccc(O[C@@H]2O[C@H](CO)[C@@H](O)[C@H](O)[C@H]2O)c(O)c1O | 31* | ·
O=C(O)c1c[nH]c2cc(C(F)(F)F)ccc2c1=O | · | 0.3
Cc1cc2c3c([nH]c2cc1S(=O)(=O)NCc1ccco1)CC(C)(C)CC3=O | -4.7 | ·
COc1ccc2cc(CCNC(=O)c3ccco3)c(=O)[nH]c2c1 | · | -1.3
S=C(Nc1cccnc1)N1CCCN(Cc2ccc(Cl)cc2Cl)CC1 | · | 12*
COc1ccc(OC)c(C2CC(=O)Nc3c(-c4ccc(Cl)cc4)csc32)c1 (stereo not drawn) | 1.8 | ·
O=C(N/N=C/c1ccncc1)N/N=C/c1ccncc1 | · | -0.61
COc1ccc(-c2nc3ccccc3o2)cc1NC(=O)/C=C/c1ccco1 | · | -3.2
CCCCOc1ccc(S(=O)(=O)N=Nc2c(O)[nH]c3ccc(Br)cc23)cc1 | · | -0.65
Cn1nc(C(=O)NCCc2ccsc2)c2c1-c1ccccc1SC2 | 0.82 | -0.92
COCc1cc(=O)[nH]c(SC2CC(=O)N(c3ccc(N4CCOCC4)cc3)C2=O)n1 (stereo not drawn) | · | -2.3
COc1ccc(-c2cccc(NS(=O)(=O)c3ccc(C)s3)c2)nn1 | 0.35 | ·
CCOC(=O)C1=C(C)NC2=C(C(=O)CCC2)C1c1ccc(C(=O)OC)cc1 (stereo not drawn) | 1 | 2
CC1(C)CC(=O)C=C(NC2CC(C)(C)NC(C)(C)C2)C1 | · | -2.2
CC(C)c1cc(C(=O)N2CCCC2c2cc(C(C)C)on2)on1 (stereo not drawn) | 1.5 | ·
CCCCCCCCCCCC(=O)ON1C(=O)CCC1=O | · | -1.8

Next section.
SMILES | TAR Tat displ | CDC25B CDK2 inh
CC(=O)N1c2ccccc2CC1C(=O)NCc1cccs1 (stereo not drawn) | 1.4 | ·
Cc1nnsc1-c1nnc(SCC(=O)Nc2ccc(F)cc2)n1C1CC1 | · | -0.98
Cc1cc2oc(C(=O)N(Cc3ccc(C(C)C)cc3)C3CCS(=O)(=O)C3)cc(=O)c2cc1C (stereo not drawn) | -0.89 | -2.1
Cc1cc(OCC(=O)Oc2ccc(-n3cnnn3)cc2)ccc1Cl | -1.5 | 0.38
Brc1ccc(CN2CCN(Cc3ccncc3)CC2)cc1 | · | -1.6
CCOC(=O)c1c(C)[nH]c(NC(=O)Nc2nnc(C)s2)c1C | 1.7 | 0.28
Cc1c(CNC2CCCCC2)c(C(=O)O)c(C)n1-c1ccc(Cl)cc1 | 1.2 | ·
CCOC(=O)C(=CNc1cscc1C)C(=O)OCC | · | -0.03
CCCCSc1nc2c(c(=O)[nH]1)C(c1ccc(OC)cc1)C(C(=O)OC(C)C)=C(C)N2 (stereo not drawn) | 0.73 | -0.92
CC1=C(C(=O)OCC2CCCO2)C(c2coc3ccccc3c2=O)C2=C(CC(C)(C)CC2=O)N1 (stereo not drawn) | 0.92 | -1.3
CCCCc1nc(SCC(=O)Nc2ncccn2)n[nH]1 | -0.72 | -0.07
Cc1cc(C)nc(Nc2n[nH]c(Cc3ccccc3)n2)n1 | -0.1 | -0.22
CCOCCCNc1sc(S(C)(=O)=O)nc1S(=O)(=O)c1ccc(Cl)cc1 | 1.3 | -0.26
Cn1c(=O)c2cc(S(=O)(=O)Nc3ccc4c(c3)oc(=O)n4C)ccc2n(C)c1=O | 0.03 | ·
O=S(=O)(c1ccc2ccccc2c1)n1nc(-c2ccco2)nc1NCc1ccc(F)cc1 | 0.06 | 0.72
COc1ccc(Nc2c(-c3ccc(SC)cc3)nc3ncccn23)cc1OC | 0.22 | 0.15
Cn1c(-c2ccccc2)nc2c(c1=O)C1(CCCCC1)Cc1ccccc1-2 | 2.4 | -1.5
Cc1ccc(NS(=O)(=O)c2ccc(-c3cc(C)[nH]n3)s2)c(C)c1 | 0.36 | ·
Cc1nn(CC(=O)NCc2ccco2)c(=O)c2c1sc1ccccc12 | 2.8 | -0.98
CCN(CC)c1ncnc2c1oc1ccccc12 | 0.17 | -2.7
O=C(O)c1nccnc1C(=O)Nc1ccc(Cl)cc1 | 1.1 | -0.58
CC(=O)Nc1ccc(NC(=O)c2cc(C)ccc2[N+](=O)[O-])c(C)c1 | · | -2.1
CC(=O)Nc1c(C(=O)Nc2ccccc2F)oc2ccccc12 | -1.8 | -1.4
COc1ccc2cc3cc(C(=O)N4CCN(c5ccccn5)CC4)oc3nc2c1 | · | -1.8
O=c1c2ccccc2nc(SCc2cc(=O)n3ccccc3n2)n1Cc1cccs1 | · | -1.4
O=C1CN(Cc2cccc(Br)c2)S(=O)(=O)c2ccccc2N1Cc1ccc(F)cc1 | 1.2 | ·
Cc1ccc(C(O)(c2ccccc2)c2nc3ccccc3n2C)cc1 (stereo not drawn) | 1.7 | -0.32
COc1ccc(F)cc1-c1cc(N2CCN(S(=O)(=O)c3cccc4nsnc34)CC2)ncn1 | 1.9 | ·
CN(C)CCn1c2ccccc2n2cc(-c3ccc(F)cc3)nc12 | -1.2 | -1.9
CCC(C)NC(=O)C1=Cc2sc3c(c2CS1)CCCC3 (stereo not drawn) | 0.88 | ·

Four structures from above, sorted by formula weight, lowest first:
SMILES | TAR Tat displ | CDC25B CDK2 inh
CCC(C)NC(=O)C1=Cc2sc3c(c2CS1)CCCC3 (stereo not drawn) | 0.88 | ·
CC(=O)Nc1c(C(=O)Nc2ccccc2F)oc2ccccc12 | -1.8 | -1.4
CN(C)CCn1c2ccccc2n2cc(-c3ccc(F)cc3)nc12 | -1.2 | -1.9
COc1ccc2cc3cc(C(=O)N4CCN(c5ccccn5)CC4)oc3nc2c1 | · | -1.8

Next compounds follow.
SMILES | TAR Tat displ | CDC25B CDK2 inh
COc1cc2ncc(S(=O)(=O)c3ccccc3)c(N3CCCCC3)c2cc1OC | -0.26 | 5.9*
CCOc1ccc(NC(=S)NC(NC(=O)c2ccc(Cl)cc2Cl)C(Cl)(Cl)Cl)cc1 (stereo not drawn) | · | -1.2
CCN(CC)C(=O)c1c(NC(=O)c2cccs2)sc2c1CCCCC2 | 1.8 | -1.8
CC(=O)NC1=NN(C(C)=O)C(c2cc(C)ccc2OCCOc2ccc(Br)cc2)S1 (stereo not drawn) | 1.9 | -1.6
CCOC(CN(C(=O)c1ccc(C(F)(F)F)cc1)c1ccc(F)cc1)OCC | · | -1.4
CCOC(=O)N1CCC(Nc2nc(OC)nc(OC)n2)CC1 | 3 | -2.2
CCCSc1nc2ccccc2n1CCO | -1.2 | -1.6
CC1(C)CC2(CCO1)CNC(=O)O2 (stereo not drawn) | · | -1.7
Cc1ccc(C(CNC(=O)c2cc3ccccc3oc2=O)N(C)C)o1 (stereo not drawn) | 0.89 | -0.65
N#Cc1ccc(S(=O)(=O)NC2CCN(Cc3ccccc3)CC2)cc1 | · | -0.69
CCCSc1ncccc1C(=O)NCc1ccc2c(c1)OCO2 | · | -0.28
O=[N+]([O-])c1cc(S(=O)(=O)NCc2ccco2)ccc1N/N=C/c1cccnc1 | · | -0.77
Cc1nn(-c2ccc3nncn3n2)c(C)c1Sc1nnc(N)s1 | 2.7 | ·
c1cc(-c2nc3ccccc3o2)cc(-c2nc3ccccc3o2)c1 | 0.4 | -1.4
CCOC(=O)c1c(C)oc2nc(C)nc(NC3CCCC3)c12 | 0.98 | ·
